Assay outcomes (PubChem)
TRPV1 PAM: human TRPV1 potentiation; Q8NER1; TRPV1-expressing cells, Fluo-8 calcium influx, capsaicin EC20 potentiation; host cell line not named in the record; control for the full effect not named in the record; potentiation, % at 8.33 µM; 320,000 tested, 0.02% active; AID 540277; active means potentiation above 80%; inconclusive means 30% to 80%; inactive means below 30%; note: 0% is about no effect
Target sequence (Q8NER1 whole entry, looked up): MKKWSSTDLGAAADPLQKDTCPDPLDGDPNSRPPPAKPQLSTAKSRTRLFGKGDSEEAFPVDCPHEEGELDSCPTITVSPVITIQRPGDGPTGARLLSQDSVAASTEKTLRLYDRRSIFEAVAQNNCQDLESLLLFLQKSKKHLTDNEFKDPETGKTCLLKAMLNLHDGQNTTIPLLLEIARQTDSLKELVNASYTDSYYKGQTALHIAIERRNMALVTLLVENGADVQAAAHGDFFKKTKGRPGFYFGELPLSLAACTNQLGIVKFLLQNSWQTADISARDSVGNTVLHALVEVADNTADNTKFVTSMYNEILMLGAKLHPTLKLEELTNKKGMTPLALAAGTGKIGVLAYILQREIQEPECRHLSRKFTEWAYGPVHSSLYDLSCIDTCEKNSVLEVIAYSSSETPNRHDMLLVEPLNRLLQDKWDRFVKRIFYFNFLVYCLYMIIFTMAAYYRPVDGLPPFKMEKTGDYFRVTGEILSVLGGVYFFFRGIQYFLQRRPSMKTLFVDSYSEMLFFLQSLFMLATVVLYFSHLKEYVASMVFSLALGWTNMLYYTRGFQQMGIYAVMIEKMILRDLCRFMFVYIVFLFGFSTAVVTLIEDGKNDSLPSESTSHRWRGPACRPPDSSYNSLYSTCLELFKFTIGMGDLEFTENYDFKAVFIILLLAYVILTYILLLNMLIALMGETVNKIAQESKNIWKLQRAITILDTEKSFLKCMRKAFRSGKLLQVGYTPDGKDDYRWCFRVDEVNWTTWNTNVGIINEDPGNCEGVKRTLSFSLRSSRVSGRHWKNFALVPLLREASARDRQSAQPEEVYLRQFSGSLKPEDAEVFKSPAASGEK
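Cells expressing TRPV1 were dye-loaded with Fluo-8 and read kinetically: 10 s baseline, 3 min after compound (agonist portion), then 2 min after EC20 capsaicin (allosteric enhancer portion). Calcium-bound dye fluorescence at 480/520 nm.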
Sfp inh: inhibitors of Bacillus subtilis Sfp phosphopantetheinyl transferase; Biochemical Sfp PPTase activity, qHTS; Potency, µM, without a hit: max response, negative = inhibition, actives largely listed as inhibitors; 310,000 tested, 3.5% active; active = well fitted inhibition curve with a large enough effect; inconclusive = small, poorly fitted or top-dose-only effect, or another doubt; inactive = no such curve, though single readings can be large or run the other way;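 note: the enzyme is Sfp with the accession as filed and its product quenches rhodamine fluorescence; potency is the fitted concentration of half-maximal effect; 0% = enzyme reaction without inhibitor and -100% = no enzyme wells; top concentration of the series not given in the record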
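Step 1, compound plus 15 nM Sfp-PPTase, 15 min, room temperature. Step 2, add rhodamine-CoA (5 uM) and BHQ-2-YbbR (12.5 uM). Step 3, read 525/598 nm fluorescence at 0 and 30 min.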
gsp antag: antagonizes gsp, the McCune-Albright syndrome mutation. gsp-mutant cells, cAMP HTRF, 30 min; control for the full effect not named in the record. 340,000 tested, 0.4% active. Potency, µM (series often up to 76.9 µM), without a hit: at the top dose activity change, negative = inhibition, hits mostly inhibitors; active = falling curve of any shape with a large fitted effect; inconclusive = falling curve, mostly with a smaller effect; inactive = flat or rising curve; cell line not stated here;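 note: intracellular cAMP measured with PDE inhibitor Ro 20-1724 present during compound exposure; potency is the fitted concentration of half-maximal effect; % is set by controls: 0 for no effect and ±100 for the full control effect; nearly all actives have a fitted effect of over 65% in size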
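HTRF cAMP read-out (cAMP-d2 plus anti-cAMP antibody-K in lysis buffer, 30 min RT). Before lysis, cells are exposed to compounds with […] for 30 min at 37C in DPBS containing Ca/Mg, BSA and Tween 20.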
Menin-MLL FL inh: displaces fluorescein MLL peptide from human menin. Fluorescence polarization, fluorescein-MLL peptide displacement from menin. FP activity change, % at 61.4 µM. 290,000 tested, under 10 active; inconclusive = falling polarisation curve, or a change in total fluorescence; inactive = total fluorescence flat and polarisation flat or rising; no compound was filed as active; the % refers to the polarisation; negative = inhibition;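 note: % of control where 0% means no effect; inhibitors lower the polarisation; unlabelled MLL peptide was the positive control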
CtBP-E1A blk: CtBP/E1A binding inhibition | AlphaScreen GST-E1A/His-CtBP binding, 1536-well; active compounds read low; control for the full effect not named in the record | activity change, % (no concentration beside the values) | 340,000 tested, 0.49% active | AID 651724; in the data active means activity change below about -65%; inconclusive means about -30% to -65%; inactive means above about -30%; note: % is set by controls: 0 for no effect and ±100 for the full control effect
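In 5 uL wells, 23 nL compound meets equimolar GST-E1A and His-CtBP (5X stock 125 nM each) for 2 h, 37 °C. Beads (5X, 50 ug/mL) then 1 h, 37 °C, dark.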
gsp ag: agonists of gsp mutant (McCune-Albright syndrome); gsp mutant cells, cAMP HTRF, 30 min; control for the full effect not named in the record; AID 624287; 340,000 tested, 0.13% active; Potency, µM (titrated, usually from 76.9 µM), for the others: top-dose activation (cAMP increase), most hits filed as activators; active = well fitted activation curve with a large enough effect; inconclusive = small, poorly fitted or top-dose-only effect, or another doubt; inactive = no such curve, though single readings can be large or run the other way; cell line not stated here;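 note: phosphodiesterase inhibitor Ro 20-1724 added with compounds to block cAMP breakdown; potency is the fitted concentration of half-maximal effect; nearly all actives have a fitted effect of over 60% in size; about a fifth of the inactives were tested at one dose only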
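Cells in DMEM/10% FBS with G418 were pretreated with compounds in DMSO plus […] (300 uM stock) for 30 min at 37C. cAMP was measured by HTRF (cAMP-d2 plus anti-cAMP antibody-K) after 30 min at room temperature.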
ClpP mod: qHTS Assay for Activators of ClpP; ATP-dependent Clp protease proteolytic subunit (Bacillus subtilis (strain 168)), P80244; purified B. subtilis ClpP, FRET peptide cleavage, 20 min; Potency, µM (series often up to 57.5 µM), inactives show top-dose activity change, negative = active; 340,000 tested, 1.9% active; AID 651965, 2013; active = well fitted falling curve with a large enough effect; inconclusive = small, poorly fitted or top-dose-only effect; inactive = no such curve, though single readings can be large or run the other way; note: potency is the fitted concentration of half-maximal effect; the source files actives as falling curves though it sought activators and does not explain the sign; nearly all actives have a fitted effect of over 65% in size; many hits overshoot -100%
Target sequence (P80244 whole entry, looked up): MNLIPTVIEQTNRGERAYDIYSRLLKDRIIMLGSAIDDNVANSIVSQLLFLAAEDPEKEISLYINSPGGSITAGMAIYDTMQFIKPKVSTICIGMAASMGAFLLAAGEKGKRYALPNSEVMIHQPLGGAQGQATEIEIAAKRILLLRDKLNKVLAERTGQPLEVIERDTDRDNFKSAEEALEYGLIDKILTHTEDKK
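Purified B. subtilis ClpP, 10 microg/mL final in Tris/HCl pH8 with KCl, BSA, glycerol and Tween-20, cleaved an Abz/nitrotyrosine-quenched decapeptide. Fluorescence (ex 320, em 430) was read at 0 and 20 min at room temperature. Delta was normalized to 5.8 microM ADEP and DMSO/no-enzyme controls.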
Active calls of the source: *; ? = inconclusive; nt = no result given; & = joins results of further samples; [ ] = another dose, or the depositor's remark.

SMILES	TRPV1 PAM	Sfp inh	gsp antag	Menin-MLL FL inh	CtBP-E1A blk	gsp ag	ClpP mod
Cc1ccc(S(=O)(=O)N2CCN(C(=O)NCc3ccc(C(=O)O)cc3)CC2)cc1	5	1%	6%	-1.5	7	?	nt
COc1ccc(OC(=O)c2cccc(S(=O)(=O)N3CCCC3)c2)cc1	-7	-7%	?	-0.8	9	0%	-0.2%
Cc1ccc(-c2nn(-c3ccccc3)cc2NC(=O)c2ccccc2)cc1	-5	-4%	-12%	8.7	11	-23%[15.4 µM]	0.7%
O=C(c1cccc(C(F)(F)F)c1)C1CCCN(C(=O)CN2CCCC2=O)C1 (stereo not given)	2	?	7%	-7.2	17	31%	nt
O=S(=O)(NCc1csc(-c2cccs2)n1)c1cccc(C(F)(F)F)c1	-5	8%	11%	-1.5	10	?	4.1%
CCCc1ccc(S(=O)(=O)N2CCN(C(C)C(=O)NC3CCCC3)CC2)cc1 (stereo not given)	1	nt	2%	nt	4	-5%	-2.1%
N#Cc1ccc(C(=O)Nc2cccc(S(=O)(=O)NC3=NCCC3)c2)cc1	nt	nt	-9%	nt	5	-2%[15.4 µM]	nt
c1ccc2c(c1)ncn2Cc1nnc2sc(-c3ccc4c(c3)OCO4)nn12	-11	-55%	-5%	2.1	-5	11%	28µM*
CCOc1ccc(NC(=O)C2=C(C)C(=O)OC23CCC(C)CC3)cc1 (stereo not given)	12	19%	-4%	2.5	-5	-7%	1.9%&1.4%
O=C(N/N=C1\CCS(=O)(=O)c2ccc(F)cc21)c1ccc(O)cc1	2	-5%	-19%	-0.6	1	2%	1.2%
COc1ccc(C(=O)/C=C/Nc2ccccn2)c(OC)c1	-3	-2%	7%	6.9	0	5%[15.4 µM]	-4.2%
COc1ccc(NC(=O)C#Cc2ccccc2)cc1	-4	1%	-3%	1.1	5	-7%[15.4 µM]	1.0%
COC(=O)C[C@H]1c2ccccc2S(=O)(=O)N1c1cccc(OC)c1	nt	nt	-1%	nt	-4	nt	-1.4%&-2.6%
Cc1ccc(N2C(=O)C3Sc4[nH]c(=O)sc4C(c4ccccc4)C3C2=O)cc1 (stereo not given)	29	-4%	-21%	4.1	2	-8%	2.0%
CCOC(=O)CCCCCC(=O)Nc1ccc2c(c1)C(=O)N([C@@H](C)CO)C[C@@H](C)[C@H](CN(C)C(=O)Nc1ccccc1)OCCCC[C@H](C)O2	nt	nt	nt	nt	-1	?	-1.5%
CCCc1cc(Nc2cccc(OCC)c2)n2ncnc2n1	-2	5%	-8%	-1.9	5	22%	0.3%
CC[C@]12c3[nH]c4cc(CCC(=O)N(C)C)ccc4c3CCN1C(=O)[C@@H](CC(=O)NCCCOC)C[C@@H]2C(=O)N1CCN(C(=O)C2CC2)CC1	nt	nt	7%	nt	1	nt	-0.6%
Cc1ccc(S(=O)(=O)N(C)c2ccc(C(=O)N3CCN(Cc4ccc5c(c4)OCO5)CC3)cc2)cc1	4	-4%	?	-1.1	-23	6%	0.8%
COCC(=O)N1CCc2ccc(NC(=O)c3ccccc3Cl)cc2C1	-14	3%	6%	-1.2	6	7%	-0.9%
C=CCNC(=S)Nc1ccc(N2CCOCC2)c(S(=O)(=O)Nc2ccccc2Cl)c1	-16	-1%	-4%	6.1	4	-4%[15.4 µM]	0.6%
O=C(CNC(=O)c1ccco1)OCC(=O)c1ccc2ccccc2c1	-16	21%	1%	-6.1	2	16%	?
COc1ccc(CNC(=S)Nc2ccc(-c3ccccc3)cc2)cc1	-2	3%	-6%	1.5	2	2%[15.4 µM]	nt
C=CCOc1ccc(CN(C)CC(=O)Nc2ccccc2[N+](=O)[O-])cc1	4	?	-4%	1.3	2	-4%[15.4 µM]	-0.3%
O=C(Cn1cncc1-c1ccc([N+](=O)[O-])cc1)Nc1cccc2ccccc12	7	?	6%	-0.3	4	-4%	-1.3%
CCOc1ccc(N(CC(=O)NC2CCCCC2)C(=O)CSc2nnc(COc3ccccc3)o2)cc1	9	5%	2%	5.5	-1	1%	0.9%
Cc1cc(C)cc(NC(=O)N2C3CCCC2CC(NC(=O)C2CC2)C3)c1 (stereo not given)	-4	12%	7%	nt	2	3%	nt
Cc1cccc(C)c1NC(=O)C1CCN(S(C)(=O)=O)CC1	-10	-2%	17%	-7.1	12	15%	nt
COc1cccc(CN(Cc2cccnc2)S(=O)(=O)c2ccc(-n3cnnn3)c(C)c2)c1	-10	-12%	-11%	?	-16	-18%	-0.8%
O=C(COc1ccc(Cl)cc1Cl)Nc1c(-c2cccs2)nc2ccccn12	-16	-6%	5%	3.4	-10	4%	-28%
Cc1ccc2nc(N3C(=O)C(O)=C(C(=O)c4ccc(C)o4)C3c3ccc(O)cc3)sc2c1 (stereo not given)	1	nt	-4%	nt	-4	58%	0.1%
Cc1ccc(-c2cc(C(=O)N3CC(C)OC(C)C3)c3ccccc3n2)o1 (stereo not given)	-4	nt	14%	nt	3	-3%	14µM*
Cc1ccc(C(=O)NC(=S)Nc2ccc(N3CCN(C(=O)c4ccco4)CC3)cc2)cc1	18	-4%	6%	nt	-13	1%	-0.9%
C=CCOc1cccc(NC(=O)c2ccccc2SC)c1	-3	8%	-9%	2.1	-12	-29%	-0.1%
CCOc1cc(C)c(S(=O)(=O)NCCCn2ccnc2)cc1C	-6	10%	2%	-1.8	-11	-22%	-3.4%
Clc1ccc(Oc2cnc3ccccc3n2)cc1	nt	-16%	3%	-1.6	37	-22%	-1.1%
Cc1cc(C(=O)OCC(=O)NCCCN2CCCC2=O)c2ccccc2n1	0	7%	-1%	-0.5	-1	?	-15%
O=C(NCCC1=CCCCC1)c1cnc2n(c1=O)CCS2	-26	3%	10%	-0.5	3	19%	-2.1%
CCOC(=O)Cc1csc(NC(=O)/C=C/c2ccccc2Cl)n1	-15	2%	-1%	2.5	-2	-4%[15.4 µM]	0.2%
O=C(O)CC1=C(O)C(=O)N(c2ccccc2)C1c1ccc(Cl)cc1 (stereo not given)	2	21%	8%	4.0	10	0%	-1.1%
O=C(Oc1cccc(/C=N/Nc2nc(N3CCOCC3)nc(N3CCOCC3)n2)c1)c1ccco1	-12	12%	?	5.5	4	-4%	0.0%
COc1cc(C(=O)Nc2nc(-c3ccc(Cl)cc3)c(C)s2)ccc1OCC(=O)Nc1ccc(F)cc1	22	19%	17%	0.5	9	?	-29%
Cc1[nH]nc(SCC(=O)Nc2cccc(O)c2)c1[N+](=O)[O-]	12	-17%	-2%	-2.0	-1	14%	nt
Cc1cc([N+](=O)[O-])ccc1NC(=O)Nc1ccccc1F	-2	6%	7%	-1.2	0	-1%	nt
Cc1ccccc1NC(=O)Cn1cnc2c1c(=O)n(C)c(=O)n2C	4	7%	15%	1.5	-1	?	-0.9%
C[C@H](CO)N1C[C@H](C)[C@@H](CN(C)S(=O)(=O)c2cn(C)cn2)Oc2c(NS(=O)(=O)c3ccc(F)cc3)cccc2C1=O	nt	nt	7%	nt	1	23%	-3.0%
COc1ccccc1N(C)S(=O)(=O)c1ccc(C(=O)Nc2ncc(C)s2)cc1	-3	nt	-31%	nt	-4	-14%	-1.6%
COC(=O)c1ccccc1S(=O)(=O)Nc1ccc2cn[nH]c2c1	-6	-2%	-33%	2.3	1	14%	0.5%
CN(C)S(=O)(=O)c1cccc(NC(=O)c2ccccc2SCC(=O)N2CCCC2)c1	nt	nt	nt	nt	4	-18%	-1.1%
COc1ccc(S(=O)(=O)N2CCc3ccccc32)cc1C(=O)N1CCOCC1	26	nt	0%	nt	2	-17%[15.4 µM]	nt
NC(=S)N/N=C1\CCOc2ccc(Cl)cc21	4	1%	7%	-0.7	nt	-16%	-2.7%
Cc1cc(NS(=O)(=O)c2ccc(Nc3nc(-c4sc(N)nc4C)cs3)cc2)no1	-5	50µM*	-19%	?	-90*	-74%[inhibitor]	-0.9%
COc1ccc(-c2ccc(SCC(=O)N3CCN(c4ccccc4)CC3)nn2)cc1	-6	19%	-4%	-0.5	4	18%[15.4 µM]	-0.3%
COc1ccc(CN(C2CCCC2)S(=O)(=O)c2ccc(-n3cnnn3)cc2)cc1OC	17	4%	-21%	1.0	4	-14%	-0.5%
O=C(c1ccccc1Br)N1CCN(c2ccccn2)CC1	1	18%	6%	-16	4	-46%[inhibitor]	nt
COc1ccc(-n2c(CNC(=O)COc3ccccc3)n[nH]c2=S)cc1	-2	6%	-5%	1.5	2	4%	nt
CCC(C)[C@H](NC(=O)Nc1ccc2c(c1)OCCO2)C(=O)O (stereo not given in full)	2	13%	8%	-0.5	8	-66%[inhibitor]	0.2%
Cc1cc(C(=O)OCC(=O)Nc2cccc(S(=O)(=O)N(C)C)c2)c(C)o1	7	13%	3%	0.9	nt	5%	-0.5%

Four of the compounds above, as labelled records.
> NC(=S)N/N=C1\CCOc2ccc(Cl)cc21
  TRPV1 PAM = 4
  Sfp inh = 1%
  gsp antag = 7%
  Menin-MLL FL inh = -0.7
  CtBP-E1A blk = nt
  gsp ag = -16%
  ClpP mod = -2.7%

> COc1ccc(-n2c(CNC(=O)COc3ccccc3)n[nH]c2=S)cc1
  TRPV1 PAM = -2
  Sfp inh = 6%
  gsp antag = -5%
  Menin-MLL FL inh = 1.5
  CtBP-E1A blk = 2
  gsp ag = 4%
  ClpP mod = nt

> Cc1cc(NS(=O)(=O)c2ccc(Nc3nc(-c4sc(N)nc4C)cs3)cc2)no1
  TRPV1 PAM = -5
  Sfp inh = 50µM*
  gsp antag = -19%
  Menin-MLL FL inh = ?
  CtBP-E1A blk = -90*
  gsp ag = -74%[inhibitor]
  ClpP mod = -0.9%

> CN(C)S(=O)(=O)c1cccc(NC(=O)c2ccccc2SCC(=O)N2CCCC2)c1
  TRPV1 PAM = nt
  Sfp inh = nt
  gsp antag = nt
  Menin-MLL FL inh = nt
  CtBP-E1A blk = 4
  gsp ag = -18%
  ClpP mod = -1.1%
